Compound activity from PubChem BioAssay.
NS1 inh – inhibitors of influenza NS1 protein function | S. cerevisiae slowed by influenza A NS1, growth recovery by OD600 | Potency, µM (series often up to 46.1 µM), without a hit: top-dose activity, positive = more growth | 270,000 tested, 0.4% active | AID 2326; note: actives are rising curves; nearly all actives have a fitted effect of over 50% in size
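Recovery from NS1-induced slow growth read by OD600 in budding yeast switched to galactose assay medium (pH 6.0, -URA) at 1:100 dilution. Compound 23 nl per well; the matching strain lacking NS1 serves as control.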
Cruzain inh Det – cruzain (T. cruzi) inhibition with detergent. P25779. purified cruzain, Z-FR-AMC fluorescence, 0.01% Triton. Potency, µM, for the others: max response, negative = inhibition, hits mostly inhibitors. 200,000 tested, 0.43% active; active = well fitted curve in the direction sought with a large enough effect; inconclusive = small, poorly fitted or top-dose-only effect, or another doubt; inactive = no such curve, though single readings can be large; an effect the other way counts as inactive or inconclusive;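 note: plate controls were neutral wells for no effect and buffer without enzyme for full effect; nearly all actives have a fitted effect of over 40% in size; top concentration of the series not given in the record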
Target sequence (P25779 123-467 limits assumed): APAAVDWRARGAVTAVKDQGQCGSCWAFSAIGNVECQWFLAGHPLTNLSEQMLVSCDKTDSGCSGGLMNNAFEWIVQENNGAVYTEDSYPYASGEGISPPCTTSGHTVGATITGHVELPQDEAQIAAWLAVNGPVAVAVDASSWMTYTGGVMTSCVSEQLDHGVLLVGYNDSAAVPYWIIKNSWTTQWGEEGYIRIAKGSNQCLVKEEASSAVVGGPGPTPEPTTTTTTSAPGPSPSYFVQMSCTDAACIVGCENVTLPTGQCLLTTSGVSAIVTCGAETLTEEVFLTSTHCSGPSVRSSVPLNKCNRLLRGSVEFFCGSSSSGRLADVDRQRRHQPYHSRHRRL
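Enzyme 1.5 nM, Z-FR-AMC 2 uM, NaOAc 100 mM pH 5.5, DTT 5 mM, Triton X-100 0.01%; 15 min RT compound preincubation; kinetic ex360/em450, 60 s delta.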
Cruzain noTriton – blocks cruzain activity in detergent-free assay; P25779; 200,000 tested, 2.3% active; Potency, µM, for inactives: max response, negative = inhibition, actives largely listed as inhibitors; AID 1476; purified cruzain, Z-FR-AMC fluorescence, no detergent; active = well fitted curve in the direction sought with a large enough effect; inconclusive = small, poorly fitted or top-dose-only effect, or another doubt; inactive = no such curve, though single readings can be large; an effect the other way counts as inactive or inconclusive;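 note: plate controls were enzyme without inhibitor for no effect and buffer without enzyme for full effect; nearly all actives have a fitted effect of over 40% in size; top concentration of the series not given in the record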
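Purified cruzain at 1.5 nM, pre-incubated 15 min with compound at room temperature in 100 mM sodium acetate pH 5.5, 5 mM DTT, 0.00005% Triton X-100. Reaction started with 2 uM Z-FR-AMC; AMC fluorescence increase over 60 s gives rate.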
MARV entry inh – inhibitors of Marburg virus binding or cell entry; Marburg virus pseudotyped entry inhibition, cell reporter; control for the full effect not named in the record; about a third of the inactives were read at about 46 µM; Potency, µM (doses to about 37.8 µM), for inactives: at the highest dose activity change, negative = inhibition, usual class: inhibitors; 300,000 tested, 1.8% active; AID 540276; active = well fitted inhibition curve with a large enough effect; inconclusive = small, poorly fitted or top-dose-only effect, or effect the other way; inactive = flat fitted curve, though single readings scatter; tested in HEK293 cells; about a fifth of its hits are not listed in these tables; note: % is set by controls: 0 for no effect and ±100 for the full control effect; luciferase read-out
SARS PLpro yeast – SARS-CoV PLP inhibition in yeast | AID 485353 | Potency, µM (top dose mostly 32.9 µM), without a hit: at the highest dose activity, positive = growth rescue | S. cerevisiae expressing SARS-CoV PLpro, growth rescue; control for the full effect not named in the record | 330,000 tested, 0.19% active; note: 0% is about no effect; nearly all actives have a fitted effect of over 55% in size; growth read by luminescence after 48 h
RE007 growth inh – less growth of the S. pombe RE007 Vpr strain. Potency, µM (doses to about 92.2 µM), for the others: at the top dose activity change, negative = less growth. S. pombe RE007 Vpr strain, BacTiter-Glo ATP luminescence, 24 h; control for the full effect not named in the record. 360,000 tested, 0.21% active; active = well fitted falling curve with a large enough effect; inconclusive = small, poorly fitted or top-dose-only effect; inactive = no such curve, though single readings can be large or run the other way;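 note: % is set by controls: 0 for no effect and ±100 for the full control effect; nearly all actives have a fitted effect of over 50% in size; the assay follows cell death caused by Vpr and the record does not say whether a fall means rescue or toxicity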
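Fission yeast RE007 carrying one integrated HIV-1 vpr copy, seeded at OD 0.01 in PMG+AL medium with 23 nL pinned compound. Grown 24 h at 30 degrees; viability read by BacTiter-Glo luminescence after 5 min.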
Lassa entry inh – blocks Lassa virus binding to or entry into cells; Lassa virus pseudotype entry inhibition, cell reporter; control for the full effect not named in the record; 300,000 tested, 1.2% active; Potency, µM (highest dose often 37.9 µM), for inactives: top-dose activity change, negative = inhibition, hits mostly inhibitors; AID 540256; active means well fitted inhibition curve with a large enough effect; inconclusive means small, poorly fitted or top-dose-only effect, or effect the other way; inactive means flat fitted curve, though single readings scatter; tested in HEK293 cells; note: % is set by controls: 0 for no effect and ±100 for the full control effect; nearly all actives have a fitted effect of over 50% in size; luciferase read-out
StopGo reporter – lowers the luciferase signal of an FMDV 2A StopGo reporter. human cells with a luciferase reporter of 2A StopGo recoding; control for the full effect not named in the record. Potency, µM (series often up to 57.9 µM), without a hit: top-dose signal change, negative = less light. 410,000 tested, 1.2% active. AID 1159524; active = well fitted falling curve with a large enough effect; inconclusive = small, poorly fitted or top-dose-only effect; inactive = no such curve, though single readings can be large or run the other way; tested in HEK293T cells; note: % is set by controls: 0 for no effect and ±100 for the full control effect; nearly all actives have a fitted effect of over 45% in size; luciferase light after 4 h
An asterisk follows results filed as active; ? = inconclusive; . = not tested or not shown; & = joins results of further samples; [ ] = another dose, or the depositor's remark. Unless noted, calls come from the whole dose curve; as a rule, active means well fitted rising curve with a large enough effect; inconclusive means small, poorly fitted or top-dose-only effect; inactive means no such curve, though single readings can be large or run the other way. Potency is the fitted concentration of half-maximal effect.

SMILES	NS1 inh	Cruzain inh Det	Cruzain noTriton	MARV entry inh	SARS PLpro yeast	RE007 growth inh	Lassa entry inh	StopGo reporter
Cc1ccc(C2CC(=O)C(C=NCCN3CCN(C(=S)Nc4ccc(F)cc4)CC3)=C(O)C2)cc1 (stereo unspecified)	.	.	.	-4%[46.1 µM]	1%	3%	?	?
CC(=O)c1c(C)cc(C)c(CSc2nnc(-c3ccco3)o2)c1C	-104%	-2.8%	0%	-7%	-9%	13%	0%	?
Oc1ccc(Nc2nc3ccccc3nc2Nc2ccc(O)cc2)cc1	4%	-13%	-20%	?	7%	-15%	?	0%
CN1CCCCC1c1ccc(-c2cccnc2)nc1 (stereo unspecified)	1%	-1.0%&5.1%	-3%&-4%	.	2%	0%	.	2%&13%&0%
CN1CCN(CCC(=O)OC2CC3CCC(C2)N3C)CC1 (stereo unspecified)	4%[9.22 µM]	-0.5%	3%	-18%	2%	1%	-10%	-10%
O=C(CCc1nc(-c2ccccc2F)no1)NCCN1CCOCC1	1%	1.8%	4%	0%	-19%	3%	6%	1%
O=C(CN1N=C(c2ccccc2)CCC1=O)NCCN1CCc2ccccc2C1	-9%	-0.4%	-2%	0%	8%	.	8%	-13%
Cc1ccc2c(c1)N(CCC(=O)NCc1ccco1)C(=O)CO2	?	0.3%	-10%	9%	4%	-2%	4%	32%[activator]
COc1ccc(CNS(=O)(=O)c2csc(C(N)=O)c2)cc1OC	4%	1.9%	-2%	6%&6%[46.1 µM]	-3%	-1%	?	-1%&-18%
Cc1ccc(S(=O)(=O)N(C)C)cc1NC(=O)COC(=O)CCNS(=O)(=O)c1ccccc1	.	.	.	-1%	1%	8%	4%	-15%
O=C(NCCCN1CCCCC1)C1CC(=O)N(CCc2ccccc2)C1 (stereo unspecified)	1%	.	.	.	4%	7%	.	-9%
CCC(C(=O)OCn1nnc2ccccc2c1=O)c1ccccc1 (stereo unspecified)	.	.	.	-2%[46.1 µM]	4%	7%	.	-3%
CCCS(=O)(=O)c1c(S(=O)(=O)CCC)c2ccc(C(N)=O)cn2c1C(=O)c1ccccc1	0%	.	.	.	-7%	8%	.	3%
C=CCc1c(C)nc(SC(C)C)[nH]c1=O	-1%	2.1%	6%	12%	7%	-5%	4%	-3%
CCc1ccc(/C=C2\Oc3cc(OS(C)(=O)=O)ccc3C2=O)cc1	2%	-12%	?	-15%	-18%	9%	?	-9%
Cc1cc(C)n(Cc2ccc(C(=O)NCc3ccco3)o2)n1	10%	-0.4%	-1%	16%	5%	6%	-19%	2%
Cc1cc(C)n(Cc2ccc(C(=O)O)o2)n1	-2%	1.2%	-3%	17%	-1%	2%	1%	9%
COc1ccc(C(C)=NNC(=O)c2cccc(S(=O)(=O)N3CCCC3)c2)cc1	.	.	.	?	2%	-6%	-4%[46.1 µM]	?
CCN(CC(=O)NCC1CCCO1)S(=O)(=O)c1ccc(Cl)cc1 (stereo unspecified)	12%	.	.	.	10%	17%	.	-22%
Cc1ccc(C)c(NC(=O)C2CCCN2S(=O)(=O)c2ccc3c(c2)CCCC(=O)N3)c1 (stereo unspecified)	.	0.0%	12%	.	.	.	-15%[46.1 µM]	-27%
CC(C)Cc1nnc(NC(=O)C2CCCC2)s1	14%	.	.	6%[46.1 µM]	2%	9%	-30%	22%
Cc1ccc(-c2c[n+](CC(=O)c3cccs3)c3n2CCC3)cc1	9%	.	.	6%[46.1 µM]	-1%	3%	-19%[46.1 µM]	-14%
COCCNC(=O)C(c1ccc(F)cc1)N(C(=O)CCC(=O)Nc1ccccn1)c1ccc(C)cc1 (stereo unspecified)	5%	.	.	?	1%	8%	-10%[46.1 µM]	50%[activator]
NC(=O)NN=C(C1CC1)C1CC1	.	.	.	0%[46.1 µM]	.	10%	1%[46.1 µM]	6%
Cc1ccc(P(=S)(c2ccc(C)o2)N2CCOCC2)o1	0%	4.4%	-25%	-1%	0%	-4%	-10%	-9%
O=P(O)(Oc1ccccc1)OC(c1ccccc1)C(F)(F)C(F)(F)F (stereo unspecified)	.	.	.	0%[46.1 µM]	0%	-6%	25%[46.1 µM]	0%
COCCNc1cc(C)nc2c3c(C)cc(C)nc3nn12	-6%	-26%	?	4%	?	3%	-1%	-1%
Cc1ccc(NC(=O)c2ccc(F)cc2)nc1	1%	.	.	.	5%	2%	.	54%[activator]
COc1cccc(CN2C(=O)c3ccccc3Sc3ccc(C(=O)NCc4ccccc4)cc32)c1	.	-1.5%	?	?	.	.	-15%[46.1 µM]	4%
COc1ccc(CCNC(=O)CSc2nc(C)cc(C)n2)cc1OC	7%	.	.	.	0%	6%	.	-2%
CCCCCc1ccc(-c2ccc(OC)cc2)nc1	-8%	.	.	-27%	-4%	-16%	-27%	25%
OC(COCc1ccc(Cl)cc1)CN1CC=C(c2ccccc2)CC1 (stereo unspecified)	-46%	-1.4%	-5%	?	-5%	-14%&10%	1%[46.1 µM]	-21%&-22%
Cc1ccc(Oc2cc(-n3nc(C)cc3C)ncn2)cc1	-13%	-5.6%	2%	18%	-9%	-20%	10%	38%[activator]
CCN(CC)C(=O)Cn1cc(C(=O)C(=O)N(C)C2CCN(C)CC2)c2ccccc21	5%	.	.	0%	2%	-6%	9%	-5%
Cc1ccccc1-c1cc(C(=O)Nc2sc(C)c(C)c2C(N)=O)c2ccccc2n1	?	-15%	20µM*	?	-12%	4%	16µM*	?
O=C(Nc1cc(C(F)(F)F)ccc1Cl)C(Sc1ccccn1)c1ccccc1 (stereo unspecified)	3%	.	.	.	0%	0%	.	-24%
Cc1c(C(=O)Nc2ccc(F)cc2)nnn1-c1cccc(C(F)(F)F)c1	.	.	.	-1%[46.1 µM]	-5%	-11%	?	-16%
CCCOc1ccccc1NC(=O)c1c(-c2ccccc2)noc1C	-21%	-8.6%	5%	.	-6%	-1%	.	?
O=C(Nc1ccccc1)C(O)C(O)C(=O)Nc1ccccc1 (stereo unspecified)	4%	.	.	.	2%	-5%	.	-4%
O=C(Cn1nnc(-c2cccs2)n1)NCc1cccs1	.	.	.	-9%[46.1 µM]	-2%	-5%	.	25%
O=C(CC1C(=O)NCCN1Cc1ccccc1)NC1CCCCCC1 (stereo unspecified)	6%	.	.	.	-5%	2%	.	0%
CC(c1nnc(SCC(=O)Nc2cccnc2Cl)n1-c1ccccc1)N(C)C (stereo unspecified)	-2%	.	.	-21%[46.1 µM]	0%	18%	-10%	-7%
O=C(O)CN1C(=O)/C(=C\c2ccc(OC(=O)c3ccco3)cc2)SC1=S	13%	.	.	?	-3%	-2%	13%	0%
C=CCn1c(O)c(C(C)=NCCc2c[nH]c3ccccc23)c(=O)[nH]c1=O	-5%	.	.	?	0%	-20%	18%	-17%
C/C(O)=C(/N=O)C(=O)Nc1ccccc1	0%	1.3%	8%	10%	-5%	-14%	12%	10%
COc1cc(C(=O)NC(=S)NNC(=O)c2ccc3c(c2)OCO3)cc(OC)c1OC	-48%	.	.	-29%[46.1 µM]	1%	-15%	?	3%
c1ccc(CSC2=NCCCN2)cc1	1%	-2.0%	-1%	?	0%	18%	0%	-6%
COc1ccc(N2CCN(C(=O)CCCn3c(=O)[nH]c4cc(Cl)ccc4c3=O)CC2)cc1	4%	6.1%	-12%	-18%	4%	5%	?	-36%
COc1cc2c(-c3ccc(C)cc3)nc3c(c(C)nn3-c3ccccc3)c2cc1OC	.	0.4%	-14%	.	.	.	1%[46.1 µM]	-18%
COc1ccccc1-c1nnc(NC(=O)c2ccc3ncsc3c2)o1	-7%	-5.5%	11%	?	14%	-9%	-6%	30%
O=S(=O)(Nc1ccccc1N1CCOCC1)c1ccc(Cl)s1	-65%	-2.7%	0%	-3%[46.1 µM]	-2%	6%	4%	15%
Cc1ccc(-n2ncc(C(=O)NCc3ccccc3)c2C2CCN(C(=O)OC(C)(C)C)CC2)cc1	.	-11%	2%	.	.	.	?	0%
O=[N+]([O-])c1ccc(CNc2ccc(F)cc2)s1	-27%	.	.	?	2%	-27%	-16%	?
Nc1nc(-c2ccccc2)c(CC(=O)O)s1	3%	-1.4%	-5%	.	.	-24%	.	0%
Cc1ccc(N2C(=O)[C@@H]3[C@H](C2=O)C2c4ccccc4C=CN2[C@@H]3C(=O)c2ccco2)cc1 (stereo partly specified)	?	-4.6%	-10%	-19%	-5%	-23%	-5%	10%
COC(=O)c1ccccc1NC(=O)c1c(O)c2cccc3c2n(c1=O)CCC3	4%	-2.4%	?	-1%	-11%	.	.	.
CC(OC(=O)Cc1ccc(Cl)cc1)C(=O)NC1CCCCC1C (stereo unspecified)	.	.	.	18%	-3%	-8%	?	-17%
Brc1ccc2[nH]c3c(c2c1)CCC3	-1%	.	.	?	-2%	5%	8.9µM*	-3%
Cc1nn(C)c(C)c1S(=O)(=O)N(CC(=O)NCCCN1CC(C)CC(C)C1)c1ccc(C(C)C)cc1 (stereo unspecified)	-16%	.	.	.	1%	-11%	.	-10%
Cc1ccc2nc(SC(C)C(=O)N3CCCCC3)[nH]c2c1 (stereo unspecified)	.	.	.	13%[46.1 µM]	-8%	4%	?	37%[activator]

Other records follow:
SMILES	NS1 inh	Cruzain inh Det	Cruzain noTriton	MARV entry inh	SARS PLpro yeast	RE007 growth inh	Lassa entry inh	StopGo reporter
O=C(Nc1ccccc1Br)c1ccc2nccnc2c1	-10%	.	.	?	-1%	-18%	-22%[46.1 µM]	25%
O=C(COc1ccc(Cl)cc1)NNC(=O)c1ccc(=O)[nH]c1	.	.	.	12%	12%	7%	?	-3%
CCOC(=O)CC(=O)CSc1ncc(C(=O)OCC)c(N)n1	?	0.1%	-2%	13%[46.1 µM]	-28%	19%	4%	2%
COc1ccc(C2c3[nH]c4ccccc4c3C[C@H]3C(=O)N(CCCO)CC(=O)N23)c(OC)c1 (stereo partly specified)	-6%	.	.	.	-1%	-12%	.	24%
